Vaccinia inh: blocks a specific stage of Vaccinia orthopoxvirus infection. Vaccinia-infected cells, mCherry/Venus stage reporter fluorescence; active compounds read low; some inactives read as strong as hits. activity change (mCherry), % (concentration not given with the values). 89,000 tested, 0.01% active. AID 1053133;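 active means mCherry past -33% and 40 or more points under the early reporter, replicates agreeing; inconclusive means past -33% without that gap or agreement; tested in A549 cells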;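 further: scaled between vehicle wells and reference inhibitor wells; 23 nL library stock went into each well; one replicate is shown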
Vaccinia inh Venus: further read-out of Vaccinia inh, marked with its call; activity change (Venus), %; measured here: Venus reporter, other viral stage;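 negative = less Venus signal; first of two replicates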
The depositor's hits bear a star; ? = inconclusive; nt = not tested or not shown. The list is partial, so the mix of outcomes need not match the whole.

Values in the order – Vaccinia inh Venus, Vaccinia inh
CN(C)C(=O)C[C@@H]1C=C[C@H](NC(=O)c2ccc(F)cc2)[C@@H](CO)O1
  7.2, 14.0
Cc1noc(C)c1NC(=O)N(C)C[C@H]1Oc2ccc(NS(=O)(=O)c3cn(C)cn3)cc2CC(=O)N([C@@H](C)CO)C[C@H]1C
  10.9, 8.2
Cc1noc(C)c1NC(=O)N(C)C[C@@H]1Oc2ccc(NC(=O)Cc3cn(C)c4ccccc34)cc2C(=O)N([C@H](C)CO)C[C@H]1C
  12.6, 19.0
C[C@@H]1CN([C@H](C)CO)C(=O)c2cc(C#CCN(C)C)cnc2O[C@H]1CN(C)S(=O)(=O)c1cn(C)cn1
  -5.0, 10.6
C[C@@H]1CN([C@@H](C)CO)C(=O)c2cccc(NC(=O)c3ccncc3)c2O[C@@H]1CN(C)C(=O)NC1CCCCC1
  15.5, 7.0
O=C(C[C@@H]1C[C@H]2c3cc(NC(=O)Nc4ccc(C(F)(F)F)cc4)ccc3O[C@H]2[C@@H](CO)O1)NCc1cccnc1
  7.5, 4.8
CC(C)NC(=O)N1[C@H](CO)[C@@H]2c3ccccc3N(C(=O)c3ccccc3F)C[C@@H]21
  9.2, 10.6
C[C@H]1CN([C@@H](C)CO)C(=O)CCCn2cc(nn2)CO[C@@H]1CN(C)C(=O)Oc1cccc2ccccc12
  4.3, 11.2
C[C@H](O)C#Cc1ccc2c(c1)O[C@H](CN(C)Cc1cncnc1)[C@H](C)CN([C@@H](C)CO)S2(=O)=O
  5.1, 9.6
C[C@@H]1CN([C@H](C)CO)C(=O)c2cc(N(C)C)ccc2O[C@@H](C)CCCCO[C@@H]1CN(C)S(=O)(=O)c1cccs1
  nt, ?
COc1ccc(S(=O)(=O)Nc2ccc3c(c2)CC(=O)N([C@@H](C)CO)C[C@H](C)[C@H](CN(C)S(=O)(=O)c2c(C)noc2C)O3)cc1
  -1.2, 6.4
COc1ccc(NC(=O)N2CC(=O)N3[C@H](CO)[C@H](c4ccc(-c5ccccc5)cc4)[C@@H]3C2)cc1
  1.2, 4.1
COc1ccc(S(=O)(=O)Nc2ccc3c(c2)C(=O)N([C@@H](C)CO)C[C@H](C)[C@H](CN(C)C(=O)Cc2ccccc2)OCCCC[C@@H](C)O3)cc1
  6.1, 21.6
C[C@H](CO)N1C[C@H](C)[C@H](CN(C)C(=O)c2ccncc2)OCCCC[C@H](C)Oc2ccc(NS(=O)(=O)c3ccccc3)cc2C1=O
  14.4, 31.6
COc1ccc(S(=O)(=O)Nc2ccc3c(c2)C(=O)N([C@@H](C)CO)C[C@H](C)[C@@H](CN(C)S(=O)(=O)c2c(C)noc2C)OCCCC[C@H](C)O3)cc1
  nt, ?
C[C@H](CO)N1C[C@H](C)[C@H](CN(C)C(=O)Cc2ccncc2)Oc2cc(-c3cncnc3)ccc2S1(=O)=O
  9.0, 6.8
O=C(c1cnccn1)N1C[C@@H]2[C@H](c3ccccc31)[C@H](CO)N2Cc1ccc2c(c1)OCO2
  9.0, 6.2
CN1C(=O)c2cc(NS(=O)(=O)c3cccc(F)c3)ccc2OC[C@H]2O[C@@H](CC(=O)O)CC[C@@H]21
  13.3, 6.3
COc1cccc(C(=O)Nc2ccc3c(c2)C(=O)N(C)[C@@H]2CC[C@H](CC(=O)N[C@@H](C)c4ccccc4)O[C@H]2CO3)c1
  7.9, 11.5
Cc1noc(C)c1NC(=O)Nc1ccc2c(c1)C(=O)N([C@H](C)CO)C[C@@H](C)[C@@H](CN(C)CC1CCCCC1)OCCCC[C@H](C)O2
  -10.4, -9.1
CC=Cc1ccc2n(c1=O)C[C@H]1[C@H](CO)[C@@H](C(=O)N3CCc4ccccc4C3)N(C(=O)C3CCC3)[C@@H]21 (mixture of isomers)
  3.0, 14.9
C[C@H]1CN([C@@H](C)CO)C(=O)c2cc(-c3ccc(C#N)cc3)cnc2O[C@H]1CN(C)C(=O)Nc1ccccc1
  11.1, 14.4
CN1CCN(C(=O)C2=C[C@H](C3CCCCC3)C[C@H](OCc3ccc(CO)cc3)O2)CC1
  -19.6, -10.8
COCC#Cc1cnc2c(c1)C(=O)N([C@@H](C)CO)C[C@H](C)[C@H](CN(C)Cc1ccc(F)cc1)O2
  11.9, 28.2
COc1ccccc1S(=O)(=O)N[C@@H]1CC[C@@H](CC(=O)N2CCN(C)CC2)O[C@@H]1CO
  8.7, 5.9
CN1C(=O)c2cc(NC(=O)C3CCCC3)ccc2OC[C@H]2O[C@H](CC(=O)NCc3ccccc3F)CC[C@@H]21
  3.0, 2.1
COc1ccccc1-c1cnc2c(c1)C(=O)N([C@H](C)CO)C[C@@H](C)[C@H](CN(C)C(=O)c1ccccc1)O2
  8.5, 9.5
Cc1ccc(-c2ccc([C@@H]3[C@H]4CN(C(=O)c5cccnc5)CC(=O)N4[C@H]3CO)cc2)cc1
  -28.4, 1.8
C[C@@H]1CN([C@@H](C)CO)C(=O)c2cc(NC(=O)NC3CCCCC3)ccc2O[C@@H]1CN(C)Cc1ccc(-c2ccccc2)cc1
  -15.8, -33.1
O=C(NCC[C@H]1CC[C@@H](NS(=O)(=O)c2ccccc2F)[C@@H](CO)O1)c1ccc(F)cc1
  -10.2, -8.1

(listing goes on)
Values in the order – Vaccinia inh Venus, Vaccinia inh
Cc1noc(C)c1NC(=O)N(C)C[C@H]1Oc2ccc(NC(=O)C3CCCCC3)cc2C(=O)N([C@H](C)CO)C[C@@H]1C
  -5.6, -13.1
CC(C)NC(=O)N1[C@@H](CO)[C@@H](c2ccccc2)C12CN(Cc1ccc(F)cc1)C2
  13.4, 8.3
CC(C)C#Cc1cnc2c(c1)C(=O)N([C@H](C)CO)C[C@H](C)[C@@H](CN(C)C(=O)CC1CC1)O2
  11.9, 13.4
C[C@@H]1CN([C@H](C)CO)C(=O)c2cc(NC(=O)Cc3cn(C)c4ccccc34)ccc2O[C@H]1CN(C)Cc1ccc(C(F)(F)F)cc1
  -14.0, -14.4
CC(C)C#Cc1ccc([C@H]2[C@@H](CO)N3CCCCN(C(=O)Nc4ccccc4)C[C@H]23)cc1
  nt, ?
COCC(=O)N(C)C[C@H]1Oc2ncc(-c3ccc(F)cc3)cc2C(=O)N([C@H](C)CO)C[C@H]1C
  18.1, 26.7
COc1ccc(S(=O)(=O)N(C)C[C@H]2Oc3ccc(NC(=O)C4CCCCC4)cc3C(=O)N([C@H](C)CO)C[C@@H]2C)cc1
  0.4, -2.4
C[C@@H]1CN([C@@H](C)CO)C(=O)c2cc(-c3cccc(C#N)c3)cnc2O[C@H]1CN(C)C(=O)C1CC1
  8.1, 25.5
C/C=C/c1ccc([C@@H]2[C@@H](CO)N3C(=O)CN(Cc4ccc(C)cc4)C[C@H]23)cc1
  0.4, 7.9
CC(C)C#Cc1cnc2c(c1)C(=O)N([C@H](C)CO)C[C@H](C)[C@@H](CN(C)C(=O)C1CCC1)O2
  13.2, 6.8
CN(C)C(=O)c1ccc(-c2ccccc2[C@@H]2[C@@H](C#N)N(C(=O)C3CCCCC3)[C@H]2CO)cc1
  5.8, 8.1
C/C=C/c1ccc2c(c1)O[C@H](CN(C)C(=O)NC(C)C)[C@H](C)CN([C@H](C)CO)S2(=O)=O
  5.0, 6.4
COc1ccc(S(=O)(=O)N(C)C[C@@H]2OCCCC[C@@H](C)Oc3ccc(NC(=O)Nc4cccc5ccccc45)cc3C(=O)N([C@@H](C)CO)C[C@H]2C)cc1
  7.5, 8.8
CC(=O)N(C)C[C@@H]1Oc2cc(-c3ccccc3C)ccc2S(=O)(=O)N([C@@H](C)CO)C[C@@H]1C
  4.7, 18.9
COc1ccc2c3c([nH]c2c1)[C@H](CO)N(C(=O)C1CC1)CC31CN(S(C)(=O)=O)C1
  10.9, 15.6
CN1c2ccc(-c3ccc(F)cc3)cc2[C@@H]2[C@@H](CCN2C(=O)C2CCOCC2)[C@H]1CO
  7.9, 4.2
C[C@@H]1CN([C@H](C)CO)C(=O)c2cc(-c3cccc(F)c3)cnc2O[C@H]1CN(C)CC1CCCC1
  -5.0, -17.6
Cc1ccc(S(=O)(=O)Nc2ccc3c(c2)CC(=O)N([C@@H](C)CO)C[C@@H](C)[C@H](CN(C)C(=O)NC(C)C)O3)cc1
  -1.0, -5.6
C[C@@H]1CN([C@@H](C)CO)C(=O)c2cccc(NS(=O)(=O)c3ccc(Cl)cc3)c2O[C@@H]1CN(C)Cc1ccc(-c2ccccc2)cc1
  nt, ?
CCC(=O)Nc1ccc2c(c1)OC[C@@H](C)N(C(=O)CN(C)C)C[C@@H](C)[C@@H](OC)CN(C)C2=O
  18.6, 11.8
O=C(NCC[C@@H]1CC[C@@H](NC(=O)C2CCCC2)[C@@H](CO)O1)c1ccc(F)cc1
  -9.4, -4.8
O=C(CC1CC1)N1CC[C@@H]2[C@H](CO)Nc3ccc(-c4cccc(F)c4)cc3[C@@H]21
  11.3, 7.5
CC(C)NC(=O)N(C)C[C@@H]1Oc2ccc(NC(=O)C3CCCCC3)cc2C(=O)N([C@H](C)CO)C[C@@H]1C
  10.7, 12.3
Cc1noc(C)c1NC(=O)N(C)C[C@H]1Oc2c(NC(=O)NC3CCCCC3)cccc2C(=O)N([C@@H](C)CO)C[C@H]1C
  11.6, 14.7
CO[C@H]1CN(C)C(=O)c2ccc(NC(=O)Nc3c(C)noc3C)cc2OC[C@H](C)N(C)C[C@@H]1C
  18.7, 40.6
C[C@H](CO)N1C[C@H](C)[C@H](CN(C)Cc2ccc(Cl)c(Cl)c2)Oc2c(NC(=O)CCCCCC(=O)Nc3ccccc3N)cccc2C1=O
  nt, ?
CCCNC(=O)Nc1ccc2c(c1)C(=O)N(C)C[C@H](OC)[C@@H](C)CN(C(=O)C1CCOCC1)[C@H](C)CO2
  8.5, 11.5
C[C@H]1CN([C@@H](C)CO)C(=O)c2cc(NC(=O)C3CC3)ccc2O[C@H]1CN(C)S(=O)(=O)c1cn(C)cn1
  14.2, 37.9
COc1ccc(NC(=O)Nc2ccc3c(c2)C(=O)N([C@@H](C)CO)C[C@@H](C)[C@H](CN(C)C(=O)Nc2ccc(F)cc2)OCCCC[C@@H](C)O3)cc1
  -13.1, -11.0
C[C@@H]1CN([C@H](C)CO)S(=O)(=O)c2ccc(Br)cc2O[C@H]1CN(C)C(=O)CN(C)C
  -5.1, -10.1

(more compounds)
Values in the order – Vaccinia inh Venus, Vaccinia inh
Cc1ccc(S(=O)(=O)Nc2cccc3c2O[C@H](CN(C)S(=O)(=O)c2cccs2)[C@H](C)CN([C@@H](C)CO)C3=O)cc1
  -0.4, -5.5
COc1ccc(NC(=O)N(C)C[C@H]2OCCCC[C@@H](C)Oc3ccc(NS(=O)(=O)c4cn(C)cn4)cc3C(=O)N([C@H](C)CO)C[C@@H]2C)cc1
  -1.2, 12.0
C[C@H](CO)N1C[C@H](C)[C@H](CN(C)C(=O)c2cnccn2)Oc2cc(Br)ccc2S1(=O)=O
  14.4, 17.5
C[C@H](CO)N1C[C@H](C)[C@H](CN(C)CC2CCCCC2)Oc2ccc(NC(=O)CCN3CCOCC3)cc2CC1=O
  10.7, -3.2
Cc1nn(C)cc1NC(=O)C[C@H]1CC[C@@H]2[C@@H](COc3ccc(NC(=O)NC(C)C)cc3C(=O)N2C)O1
  6.9, 5.5
C[C@@H]1CN([C@H](C)CO)C(=O)c2cccc(NC(=O)C3CC3)c2O[C@H]1CN(C)S(=O)(=O)c1cccs1
  2.0, 9.5
C/C=C/c1ccc2c(c1)O[C@H](CN(C)CCC)[C@H](C)CN([C@H](C)CO)S2(=O)=O
  -17.2, -9.1
C[C@H]1CN([C@@H](C)CO)S(=O)(=O)c2ccc(C#CC3CC3)cc2O[C@@H]1CN(C)Cc1ccc(F)cc1
  nt, ?
O=C(N[C@H]1CC[C@@H](CCNS(=O)(=O)c2ccc(F)cc2)O[C@@H]1CO)C1CCC1
  6.7, 10.8
Cc1noc(C)c1NC(=O)N(C)C[C@H]1Oc2ccc(NC(=O)CCN3CCOCC3)cc2CC(=O)N([C@@H](C)CO)C[C@@H]1C
  -1.1, -11.6
C[C@H]1CN([C@@H](C)CO)C(=O)Cc2cc(NS(=O)(=O)c3cccs3)ccc2O[C@@H]1CN(C)Cc1ccc(Cl)c(Cl)c1
  nt, ?
CC(C)NC(=O)Nc1ccc2c(c1)C(=O)N([C@@H](C)CO)C[C@@H](C)[C@@H](CN(C)C(=O)Nc1ccc3c(c1)OCO3)O2
  20.2, 25.5
COc1ccc(S(=O)(=O)N(C)C[C@@H]2Oc3ccc(NC(=O)Cc4ccccc4)cc3C(=O)N([C@H](C)CO)C[C@@H]2C)cc1
  -2.0, -5.3
CNC[C@H]1OCCCC[C@H](C)Oc2ccc(NC(=O)CCCN(C)C)cc2C(=O)N([C@@H](C)CO)C[C@@H]1C
  -1.6, -13.9
CC(=O)N1[C@H](CO)[C@@H](c2ccccc2)C12CN(C(=O)c1ccccc1)C2
  7.0, 11.3
COc1cccc(CN2[C@@H](CO)[C@@H](c3ccccc3)C23CN(C(=O)C2CCC2)C3)c1
  -8.3, -14.3
CCc1nc(N2[C@H](C#N)[C@H](c3ccccc3-c3ccccc3C)[C@H]2CO)sc1C
  13.3, 1.1
O=C(C[C@H]1CC[C@H]2[C@@H](COC[C@H](O)CN2Cc2ccccc2)O1)NCc1ccccc1Cl
  -12.9, -1.0

Single values from the entries so far.
COc1ccc(NC(=O)N(C)C[C@H]2OCCCC[C@@H](C)Oc3ccc(NS(=O)(=O)c4cn(C)cn4)cc3C(=O)N([C@H](C)CO)C[C@@H]2C)cc1 @ Vaccinia inh: 12.0
C/C=C/c1ccc2c(c1)O[C@H](CN(C)CCC)[C@H](C)CN([C@H](C)CO)S2(=O)=O @ Vaccinia inh: -9.1
O=C(N[C@H]1CC[C@@H](CCNS(=O)(=O)c2ccc(F)cc2)O[C@@H]1CO)C1CCC1 @ Vaccinia inh Venus: 6.7

High-throughput results as filed in PubChem BioAssay.
